Beta2AR agonist: agonists of human beta-2 adrenergic receptor inducing internalization; Am2.2-beta2AR cells, FAP receptor internalization, flow cytometry; reference of the scale not given here; P07550; response, % (test concentration not listed); hit rate 0.43% among 340,000;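 active means response above a set limit, near 3 SD of response in nonfluorescent compounds, cut at about 42% in these data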;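 further: stock transfer was 100 nL into about 11 µL; a reference agonist was the positive control; negative values mostly stem from fluorescent compounds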
Calb FLC: affects C. albicans growth with fluconazole; hit rate 0.57% among 300,000; growth inhibition, % (test concentration not listed); C. albicans CaCi-2 (fluconazole-resistant clinical isolate) + fluconazole, Alamar Blue growth, 48 h; AID 1979;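 active means most replicates above 75%; inconclusive means exactly half above 75%; inactive means most below 75%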;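 further: all wells also contain fluconazole at 8 µg/ml as a sub-toxic cotreatment; 0% = median of DMSO wells and 100% = median of geldanamycin control wells; wells of about 8 µL received 7.5 nL stock; the first replicate is given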
ALR inh: human ALR oxidase inhibition via reduced H2O2 | P55789 | hit rate 3.8% among 290,000 | purified ALR, DTT oxidation, H2O2 HRP-luminol luminescence | inhibition, % (test concentration not listed);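 active means mean and each replicate at 75% or more; inconclusive means only one of the two met; inactive means neither met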;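 further: stock transfer was 7.5 nL into about 7.5 µL; 0% = neutral wells and 100% = wells with inactivated enzyme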
rRNA inh HTS: selective bacterial rRNA inhibition in E. coli. E. coli WT GFP vs humanized-ribosome RFP mutants, fluorescence, 24 h; active compounds read low; DMSO median 0, no signal -100. GFP signal change (wild-type ribosome), % (test concentration not listed). hit rate 1.6% among 350,000. AID 720706;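 active means significant combined selectivity score with lowered wild-type GFP, culture density cut under 30%, mutant RFP and density less affected; inactive means any of these conditions unmet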; further: one replicate is shown; some compounds called inactive have numbers as strong as hits
Beta cell apopt: blocks beta cell apoptosis | INS-1E cytokine-induced death, ATP luminescence, 48 h; percent of positive-control rescue, neutral wells zero | protection from apoptosis, % (no concentration beside the values) | hit rate 0.8% among 300,000 | AID 435005;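 active means all replicates at 75% or more, or half of them and the mean; inconclusive means half reach 75% but not the mean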;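 further: 0% = cytokine-treated negative control wells and 100% = positive control rescue; higher means more ATP so stronger rescue from cytokine killing; wells of about 40 µL received 100 nL stock; the first replicate is given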
Bfl-1 A1 inh: inhibitors of the anti-apoptotic protein A1, read as caspase activation; MEF A1-2A-BIM cells, Caspase-Glo 3/7 luminescence, 3 h; percent of clofoctol response, vehicle zero; caspase activation, % (concentration not given with the values); hit rate 0.066% among 330,000;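 active means over half of replicate activation scores above 10%, or exactly half above 10 with the replicate mean above 10; inconclusive means replicate mean below 10 yet half the replicates above 10; inactive means over half of replicates below 10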;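 further: wells of about 30 µL received 50 nL stock; many hits fall short of the cut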
LANA-H2A inh: blocks KSHV LANA binding to histone H2A/H2B; hit rate 0.6% among 320,000; inhibition, % (test concentration not listed); cell-free LANA-H2A/H2B peptide, fluorescence polarization; Q9QR71; in the data active means inhibition mostly above about 10%, no sharp cut-off; inactive means mostly below about 6.7%;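 further: stock transfer was 7.5 nL into about 10 µL; 0% = median of vehicle wells and 100% = median of positive control wells; one replicate is shown; the record names a cut of 25% in any replicate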
Target sequence (Q9QR71 whole entry, looked up): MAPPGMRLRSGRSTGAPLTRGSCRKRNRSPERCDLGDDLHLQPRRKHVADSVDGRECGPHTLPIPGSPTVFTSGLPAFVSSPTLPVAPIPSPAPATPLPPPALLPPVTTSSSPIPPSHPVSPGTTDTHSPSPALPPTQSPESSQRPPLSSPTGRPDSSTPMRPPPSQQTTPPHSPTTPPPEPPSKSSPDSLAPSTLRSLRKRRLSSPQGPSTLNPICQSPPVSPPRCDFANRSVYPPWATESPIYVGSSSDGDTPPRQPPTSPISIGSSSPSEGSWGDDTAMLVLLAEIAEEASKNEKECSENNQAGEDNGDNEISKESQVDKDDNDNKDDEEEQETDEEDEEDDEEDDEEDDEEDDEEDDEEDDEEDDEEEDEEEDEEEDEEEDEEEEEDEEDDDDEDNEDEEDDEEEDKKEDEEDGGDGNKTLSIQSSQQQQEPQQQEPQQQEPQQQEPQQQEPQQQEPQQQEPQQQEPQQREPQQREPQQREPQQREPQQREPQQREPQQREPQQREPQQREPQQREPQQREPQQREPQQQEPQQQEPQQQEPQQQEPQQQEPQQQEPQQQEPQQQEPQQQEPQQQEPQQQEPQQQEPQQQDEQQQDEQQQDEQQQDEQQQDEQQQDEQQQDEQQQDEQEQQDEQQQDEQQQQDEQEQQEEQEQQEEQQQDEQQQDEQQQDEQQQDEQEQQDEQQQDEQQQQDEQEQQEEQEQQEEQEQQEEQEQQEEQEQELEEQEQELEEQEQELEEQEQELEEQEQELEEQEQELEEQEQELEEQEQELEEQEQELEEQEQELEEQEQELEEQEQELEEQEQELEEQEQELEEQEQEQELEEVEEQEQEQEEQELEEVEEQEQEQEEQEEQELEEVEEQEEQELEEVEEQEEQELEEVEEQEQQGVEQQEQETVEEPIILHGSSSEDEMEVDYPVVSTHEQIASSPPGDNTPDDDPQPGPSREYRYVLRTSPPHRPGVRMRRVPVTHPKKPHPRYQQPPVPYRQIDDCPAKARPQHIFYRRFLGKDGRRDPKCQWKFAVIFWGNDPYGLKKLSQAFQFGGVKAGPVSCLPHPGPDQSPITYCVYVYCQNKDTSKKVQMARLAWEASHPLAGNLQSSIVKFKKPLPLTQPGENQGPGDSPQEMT
T cruzi repl: T. cruzi replication inhibition. T. cruzi beta-gal in NIH3T3, luminescence, 90 h. inhibition, % (concentration not given with the values). hit rate 1.4% among 300,000. AID 1885;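 active means mean inhibition across valid replicates above about 55%, limit read from the data; inconclusive means mean below that limit but half or more replicates reach it; inactive means mean below it, under half of replicates reach it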;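 further: signal also drops with host cell toxicity which is not excluded here; 0% = plate median of DMSO wells and 100% = zero luminescence signal; higher percent means less beta-gal luminescence so fewer parasites; stock transfer was 50 nL into about 50 µL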
rRNA inh HTS OD600: recorded beside rRNA inh HTS, whose call it bears; OD600 change, %; measured here: OD600 growth;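 optical density of the mix in the first replicate; 0 = DMSO median and -100 = no signal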
rRNA inh HTS RFP: second read-out of rRNA inh HTS, no call of its own (marks repeat the call); RFP signal change, %; measured here: RFP humanized mutant strains;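 first replicate; 0 = DMSO median and -100 = no signal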
Numbers without * were called inactive; ? = inconclusive; · = no result given. The list is partial; rates above refer to the full screens.

SMILES	Beta2AR agonist	Calb FLC	ALR inh	rRNA inh HTS	rRNA inh HTS OD600	rRNA inh HTS RFP	Beta cell apopt	Bfl-1 A1 inh	LANA-H2A inh	T cruzi repl
CC(C)c1ccc(OCC(=O)Nc2cccc(C(=O)Nc3ccccc3C(=O)O)c2)cc1	4.8	75.9*	97.6*	-60.2	-82.2	-23.0	-1.8	-0.5	-2.2	17.6
CCOC(=O)c1c(C)n(C)c2ccc(OCC(O)CNC(CC)CO)cc12 (stereo not drawn)	-3.3	-0.2	0.4	·	·	·	7.0	0.2	-0.6	7.0
Cc1cccc2nc(-c3ccccc3)nc(N[C@@H](CO)c3ccccc3)c12	1.5	3.0	-7.6	·	·	·	-0.4	1.0	-6.7	?
CN1CCN(C(=O)C2=C[C@H](c3ccc(C(F)(F)F)cc3)C[C@H](OCc3ccc(CO)cc3)O2)CC1	-0.8	-10.6	0.4	-3.0	-12.1	11.0	-5.5	-0.5	0.2	-8.4
COc1ccccc1N1CCN(S(=O)(=O)c2ccc3c(c2)oc(=O)n3C)CC1	-4.4	38.2	4.2	-5.4	-4.3	-1.7	-1.7	0.2	0.2	0.1
COc1ccc(OC)c(N(CC(=O)N2CCC(C)CC2)S(=O)(=O)c2ccc(OC)c(OC)c2)c1	0.2	3.7	34.8	·	·	·	·	-0.9	-3.6	9.9
CN(C)C(/C=C/Nc1cccc(Br)c1)=C(C#N)C#N	2.7	-27.1	-5.8	1.7	12.1	1.8	-7.7	0.0	-6.0	-9.1
COc1ccc2[nH]c3c(=O)n(N)c(C)nc3c2c1	2.3	29.5	-6.0	·	·	·	-3.4	0.4	-1.5	0.5
CCOC(=O)c1sc(NC(=O)C(C)(C)C)cc1C	1.6	-3.6	-2.1	4.5	11.4	-1.6	·	0.1	-1.8	-5.0
CSc1nnc(-c2ccc(S(=O)(=O)N3CCOCC3)cc2)n1CC1CCCO1 (stereo not drawn)	6.2	-12.4	-1.4	·	·	·	1.6	0.0	4.5	-10.1
CC(C)(C)C(=O)NCCCc1ccccc1	0.2	30.4	4.2	·	·	·	0.7	0.3	-14.5	19.0
COc1cc(-c2nnc(SCC(=O)N3CCCC3)o2)cc(OC)c1OC	-3.1	-1.9	-0.4	·	·	·	4.3	-0.6	1.0	-11.5
Cc1ccc(-c2cc3nc4c(c(=O)n3[nH]2)CCCC4)cc1	-4.0	1.8	0.7	·	·	·	3.2	-4.2	-4.8	0.0
O=C(Nc1ccccc1F)c1ccc2ncsc2c1	1.6	105.3*	·	2.1	14.9	-1.2	·	-6.4	-1.6	4.4
Cc1ccccc1N(Cc1nnc2n1CCCCC2)C(=O)Nc1ccccc1	-6.5	2.6	1.1	·	·	·	-7.3	1.0	-2.7	-5.5
Cn1c(SCC(=O)N2CCCC2=O)nc2ccccc21	-2.2	1.9	·	16.9	18.2	-2.0	-3.4	1.2	-1.9	-7.7
CCNc1ccc(C(=O)OCC(=O)NC(C)c2ccccc2)cc1[N+](=O)[O-] (stereo not drawn)	-3.2	-2.2	·	5.8	11.0	0.0	-7.7	0.6	-3.4	-5.9
COc1c2c(c(C)c3c1C(=O)OC3)O[C@@]1(C)CC[C@@]3(O)C(C)(C)OC(=O)CC[C@]3(C)[C@H]1C2	8.7	7.7	-6.4	5.5	5.2	-3.1	0.1	2.2	0.9	-3.0
CSc1nnc(-c2ccco2)c(-c2ccco2)n1	14.7	-1.7	4.9	·	·	·	-5.0	-0.3	5.8	10.0
CCOC(=O)/C=c1\s/c(=C\c2ccc(C#N)cc2)c(=O)n1CC(=O)NCc1ccco1	-14.0	-1.4	-0.7	8.5	11.1	-1.0	-3.7	0.0	-0.2	0.7
CCOc1ccccc1Nc1cc(C)nc2ccc(C)cc12	9.6	-1.6	22.3	·	·	·	22.9	0.3	4.2	39.4
CCOC(=O)/C=C/C(=O)OCC(=O)Nc1c(Cl)cccc1Cl	2.5	18.2	14.8	24.3	16.6	0.0	-2.5	-1.0	-1.0	-7.9
COc1ccc(N=Nc2c(N)n[nH]c2N)cc1	3.1	3.2	77.8*	2.5	1.5	-0.1	-4.1	-1.6	1.9	-0.7
O=C(CC(c1ccccc1)c1ccccc1O)NCc1ccccc1Cl (stereo not drawn)	13.4	7.5	17.8	·	·	·	0.7	-0.9	1.5	-6.3
COc1ccc(NC(=O)N2CCNC(=O)C2CC(=O)Nc2ccc(F)cc2)cc1 (stereo not drawn)	-1.1	3.9	4.9	1.9	7.5	3.6	-7.2	-2.4	-1.3	2.9
O=C(CSc1nnc(NC(=O)C2CCC2)s1)Nc1ccccc1F	-5.9	-1.3	1.9	-4.5	-9.4	0.7	1.0	0.3	2.5	-10.3
CC1(C)CC(=O)c2sc(NS(=O)(=O)c3ccc(Cl)cc3)nc2C1	0.5	-1.2	3.5	-1.1	-16.0	-0.2	1.2	-0.7	3.8	5.1
CC#CC(=O)N1CCC(CO)(CCc2ccccc2)CC1	-3.2	-6.8	0.7	1.1	-3.2	2.5	-0.4	-0.3	-1.0	-11.0
CC1(C)Cc2c(c(N3CCOCC3)nc3sc(C#N)c(N)c23)CS1	10.8	13.3	-0.2	·	·	·	4.2	-1.3	3.7	17.6
COCCN(C(=O)CC1C(=O)NCCN1CC(c1ccccc1)c1ccccc1)C(C)C (stereo not drawn)	2.3	-0.7	-11.0	-0.6	-1.8	-1.6	-7.6	0.0	-3.8	-21.5
CSCCOC(=O)COc1ccc(/C=N/NC(=O)c2c(Cl)cnn2C)cc1	10.3	0.1	-3.2	19.6	19.1	2.3	-4.5	-0.9	2.9	8.2
CC1(C)CC(=O)c2c(S(C)(=O)=O)sc(Br)c2C1	-1.9	-12.4	3.4	·	·	·	-8.3	-0.5	2.2	-10.1
O=C1C=C(c2cnc3ccccc3c2)C[C@@H](c2ccc3c(c2)OCO3)C1	-4.9	·	-4.9	-12.2	-11.0	-3.6	0.0	-0.3	-1.2	·
CC(C(=O)Nc1cccnc1)c1ccc([N+](=O)[O-])cc1 (stereo not drawn)	-12.1	23.5	-6.4	7.8	6.3	0.8	6.2	0.1	-6.8	1.8
COc1ccc2c(c1OC)C(=O)N1c3ccccc3C(=O)N(c3ccccc3)C21 (stereo not drawn)	11.8	-1.6	-5.7	·	·	·	2.1	0.6	0.4	10.4
Cn1c(=O)c2[nH]c(C3CCCC3)nc2n(C)c1=O	2.4	6.0	1.1	3.7	0.0	-1.3	·	1.7	-8.6	-9.1
COC(=O)c1cnc(SCC(=O)c2ccccc2)n1C	-8.3	3.9	13.5	0.0	-10.5	-3.3	0.9	-4.4	-3.1	-8.4
O=C(CN1C(=O)C2C3C=CC(C3)C2C1=O)Nc1ccc(C(=O)O)cc1 (stereo not drawn)	-1.3	-20.8	9.8	·	·	·	-4.2	1.0	-5.9	7.0
Cc1oc2c(CN3CCCCC3)c(O)ccc2c(=O)c1-c1ccc(Br)cc1	-11.8	0.4	·	10.0	7.5	0.4	-5.2	-0.2	4.3	-6.8
O=C(Nc1ccc2c(c1)C(=O)N(c1ccccc1)C2=O)C1CCCO1 (stereo not drawn)	3.1	-4.4	-14.8	·	·	·	3.0	0.2	-0.8	-12.8
C=C1CCN(c2ccc(C(=O)NCCC)cc2[N+](=O)[O-])CC1	-4.0	-4.6	-3.7	-22.5	-32.0	-5.8	3.0	0.4	0.8	4.5
O=C(CNCC1CCCO1)NCc1ccco1 (stereo not drawn)	5.2	-4.5	-26.6	15.8	17.6	3.5	0.1	-0.2	2.1	-11.1
COc1ccc(C(=O)NN=C2CCCC2)c(OC)c1	-1.5	1.4	-0.6	9.5	7.8	3.3	-2.6	-0.9	0.9	-1.7
CCOC(=O)N1CCN(C(=O)CN(c2ccc(C)c(C)c2)S(=O)(=O)c2ccccc2)CC1	1.7	16.3	-2.8	·	·	·	2.7	0.5	1.3	9.9
Nc1nc(=S)n(-c2ccccc2)[nH]1	-4.9	-3.2	74.3	10.1	7.0	-5.6	-3.8	-0.4	-5.2	-5.0
CC(C)(CO)Nc1ncnc2onc(-c3ccc(F)cc3)c12	-1.6	-0.8	-10.1	4.5	5.9	1.8	7.7	-0.6	-3.1	-2.7
Cc1cc(NC(C)c2ccccc2)n2ncc(-c3ccccc3)c2n1 (stereo not drawn)	3.8	3.3	2.7	-9.9	-30.7	-6.5	5.7	?	1.7	10.8
CCc1ccccc1N1C(=O)CN(Cc2cc(OC)c(OC)c(OC)c2)C1=S	0.2	-8.8	7.4	-13.5	-11.9	5.5	-1.3	-0.3	-0.7	20.9
CCC(C)NC(=O)c1ccccc1NS(=O)(=O)c1ccc(OC)c(OC)c1 (stereo not drawn)	-1.9	13.2	·	·	·	·	-7.4	1.2	-5.5	-17.5
O=C(C[n+]1ccccc1)N/N=C/c1ccccc1F	3.8	6.8	-4.5	17.9	18.7	-0.7	·	1.8	4.1	-19.2
Cc1ccc(CC2CC(=O)N(Cc3ccco3)C2=O)cc1 (stereo not drawn)	0.1	13.5	10.6	·	·	·	-0.8	-0.3	-1.7	-9.3
COc1ccc(S(=O)(=O)c2ccccc2)cc1NS(=O)(=O)c1cccc(C(=O)O)c1	7.1	·	·	7.5	7.2	-1.4	-9.3	0.2	3.3	·
CN1CCC(=O)N([C@H](CN=[N+]=[N-])c2ccccc2)CC1	-1.7	-9.6	·	10.2	9.0	-5.0	1.3	-0.8	-5.3	-12.6
Cc1nnc(NC(=O)CSc2ncnc3c2cnn3-c2ccccc2C)s1	-1.7	84.6*	-4.5	·	·	·	-3.0	0.1	0.4	-5.3
Cc1cc(=O)oc2cc(OCC(=O)NC3CCN(Cc4ccccc4)CC3)c(Cl)cc12	-0.8	-9.3	3.7	-1.3	-2.3	3.8	·	1.3	0.7	47.7
Cc1onc(-c2c(F)cccc2Cl)c1C(=O)NC(=S)Nc1c(C)n(C)n(-c2ccccc2)c1=O	-4.1	0.5	-1.6	15.6	16.1	1.1	·	0.1	-0.4	-7.9
COc1ccc(/C=C/c2nnc(NC(=O)CSc3ccc(Cl)cc3)s2)cc1	0.6	-18.2	-11.9	·	·	·	-8.7	-1.4	-4.2	-7.1
CCOc1ccccc1NC(=O)CC1Nc2ccccc2NC1=O (stereo not drawn)	-3.8	0.1	39.9	·	·	·	·	0.9	2.9	8.8
Cc1cc(CNC(=O)C(C)Cc2ccccc2)nn1C (stereo not drawn)	-4.3	-9.0	-6.6	8.0	11.7	2.8	-2.7	0.4	1.0	-9.0
CSCC[C@H](NC(=O)[C@H](Cc1ccccc1)n1c(=O)[nH]c2ccccc2c1=O)C(=O)N[C@@H](Cc1ccccc1)C(=O)O	-9.2	6.6	7.1	·	·	·	2.7	0.4	1.3	-1.1

Screening results as filed in PubChem.
